Compound activity deposited in PubChem BioAssay by National Center for Advancing Translational Sciences (NCATS).
nsP2pro inh: CHIKV nsP2 protease inhibition, primary qHTS | Q8JUX6 | 31,000 compounds, 1.1% hits | AID 1964107 | FRET peptide cleavage, nsP2pro, fluorescence 1 h | Potency, µM (top dose mostly 24.9 µM), for the others: top-dose activity change, negative = inhibition, usual class: inhibitors; active means well fitted inhibition curve with a large enough effect; inconclusive means small, poorly fitted or top-dose-only effect; inactive means no such curve, though single readings can be large or run the other way; note: nearly all actives have a fitted effect of over 60% in size; a reference inhibitor and vehicle were the controls
* marks the source's active call; other numbers are inactive results; i = inactive; ? = inconclusive; & = joins results of further samples; [ ] = another dose, or the depositor's remark. % is set by controls: 0 for no effect and ±100 for the full control effect; potency is the fitted concentration of half-maximal effect. A portion of the library; the hit share may differ from the screen's.

entry	SMILES	nsP2pro inh
1	CC(C)(Oc1ccc(Cl)cc1)C(=O)Nc1cccc(-c2cn3cccnc3n2)c1	-10%
2	CC(C)CNC1(Cc2cc(CN3CCOCC3)on2)COC1	-4%[39.2 µM]
3	CCN(CC)CCCC(C)Nc1ccnc2cc(Cl)ccc12 (stereo unspecified)	14%[5.1 µM]
4	CCCn1c2ccccc2c2cnn(CC(=O)NCC3CCN(Cc4ccc(F)cc4)CC3)c(=O)c21	7%
5	CC(CNC(=O)CN1C(=O)c2cccnc2Oc2ccc(Cl)cc21)c1ccccc1 (stereo unspecified)	-21%
6	NC(=O)C1CCN(c2nccc(-c3ccc4c(c3)OCCO4)n2)CC1	-6%
7	CC(=O)N[C@@H](CC(=O)O)C(=O)N[C@@H](CCC(=O)O)C(=O)N[C@H](C(=O)N[C@@H](CC(=O)O)C(=O)Nc1ccc2c(C)cc(=O)oc2c1)C(C)C	7%
8	Cc1c(-c2nc(-c3ccc4c(c3)[nH]c(=O)n4C)no2)cccc1[N+](=O)[O-]	-17%
9	COCCCNC(=O)C(NC(=O)C1CC1)C1CCN(C(=O)c2ccc(C)cc2)CC1 (stereo unspecified)	-7%
10	CC(C)(C)CN1CCC2(CC1)COc1ccccc1[S+](=O)([O-])N2	-5%
11	COc1ccc(NC(=O)Cn2c(=O)n(-c3ccc(CC(=O)NCC4CCCO4)cc3)c(=O)c3ccccc32)c(OC)c1 (stereo unspecified)	-12%
12	Fc1cc(Nc2nc(-c3ccncc3)nc3ccccc23)ccc1OC(F)(F)F	-8%
13	C/C(=C1/C(=O)Nc2ccc(NC(N)=O)cc21)c1ccc[nH]1	43%[activator]
14	CCC1OC(=O)C(C)CC(C)C(=O)/C(C)=C/C(C)C(=O)/C=C/C1(C)O (stereo unspecified)	-12%
15	Cc1csc2nc(-c3cccc(NC(=O)c4ccccc4F)c3)cn12	-1%
16	Cn1cncc1CN1CCC2(CCN(C3CCOCC3)CC2)C(CO)C1 (stereo unspecified)	-8%
17	CCn1ccnc1CN1CCCC(CO)(Cc2cccc(Cl)c2)C1 (stereo unspecified)	i
18	O=C(c1ccccn1)N1CC(F)(F)C[C@H]1c1nc(-c2ncccn2)no1	i
19	CNC(=O)c1noc([C@@H]2CC(F)(F)CN2Cc2cccn2C)n1	?
20	COCCn1c(CCC(=O)Nc2ccc(OC)c(OC)c2)nc2cccnc21	-30%
21	Cc1nc(CN=C2NC3=C(C(=O)CCC3)C(c3[nH]ncc3Cl)N2)cs1 (stereo unspecified)	-3%
22	CCc1nnc2c3ccccc3nc(N3CCN(c4cc(Cl)ccc4C)CC3)n12	-6%
23	COc1ccc(CCC(=O)NCc2ccc3c(c2)CCN3C(=O)c2cccc(C)c2)cc1	-11%
24	CCOc1ccc(CCNC(=O)c2cccs2)cc1OCC	-6%

Screen by screen, from the results shown.
Nos. 17 to 22 in nsP2pro inh read i, i, ?, -30%, -3%, -6%

Later entries.
entry	SMILES	nsP2pro inh
25	Cc1nc2ccccc2n1CCc1nc2c3ccccc3nc(SCC(=O)Nc3cccc(C(F)(F)F)c3)n2n1	-10%
26	COc1c(/C=C/C(C)(C)O)ccc2c1C(=O)OCc1cc(C)cc(O)c1O2	?
27	CCCOCC(=O)N1CCCC(c2cc(N3CCCC3)nc(C)n2)C1 (stereo unspecified)	3%
28	CCCCCCCCCCC(=O)O[C@H]1CC[C@H]2[C@@H]3CCC4=CC(=O)CC[C@]4(C)[C@H]3CC[C@]12C	6%
29	COc1cc(-c2cc3n(C)c(C)c(CCC(=O)NC4CCC(C)CC4)c(=O)n3n2)cc(OC)c1OC (stereo unspecified)	-15%
30	O=C(NCc1ccccc1)N1CCc2c(sc3c2CCCC3)C1c1ccccc1 (stereo unspecified)	-20%
31	CN1CCCC(CC2c3ccccc3Sc3ccccc32)C1 (stereo unspecified)	9%
32	Cc1cn2c(=O)cc(COC(=O)c3cccc(NC(=O)C(C)Oc4ccccc4)c3)nc2s1 (stereo unspecified)	-29%
33	O=C(NC1CCCc2ccccc21)c1ccc2c(c1)sc1nc(-c3ccc(F)cc3)cn12 (stereo unspecified)	-14%
34	Cc1[nH]c2ccccc2c1CN1CCc2nc(N3CCN(C)CC3)[nH]c(=O)c2CC1	-14%
35	C[N+](C)(C)CC(O)CC(=O)O (stereo unspecified)	-5%&2%
36	COc1ccc(OC)c(NC(=O)c2csnn2)c1	?

Reprinted: entries 29–31
entry	SMILES	nsP2pro inh
29	COc1cc(-c2cc3n(C)c(C)c(CCC(=O)NC4CCC(C)CC4)c(=O)n3n2)cc(OC)c1OC (stereo unspecified)	-15%
30	O=C(NCc1ccccc1)N1CCc2c(sc3c2CCCC3)C1c1ccccc1 (stereo unspecified)	-20%
31	CN1CCCC(CC2c3ccccc3Sc3ccccc32)C1 (stereo unspecified)	9%

Continuation:
entry	SMILES	nsP2pro inh
37	COc1cc(O)ccc1OCCNCC(O)COc1cccc2[nH]c3ccccc3c12 (stereo unspecified)	?
38	CCCCNc1ccc(-c2ccc(CN3CCOCC3)cn2)c(NC2CCC(O)CC2)c1 (stereo unspecified)	-7%[10 µM]
39	COc1ccccc1Oc1c(NS(=O)(=O)c2ccc(C)cn2)nc(-c2ccncc2)nc1OC	-14%
40	Cc1ccc(-c2ccc(CNc3nc(-c4ccccc4C(C)C)ncc3F)cc2)cn1	i
41	O=C(CCc1cc2n(n1)CCCNC2)N1CCCN(c2ccncc2)CC1	13%
42	Cc1ccc(C)c(CN2C(=O)c3ccccc3Sc3ccc(C(=O)NCc4cccs4)cc32)c1	-11%
43	CCN(CC)CCN1C(=O)CN=C(c2ccccn2)c2cc(Cl)ccc21	22%[125 µM]
44	Cc1ccc(-c2ccccc2CN2CCN(C(=O)c3ccc(C(F)(F)F)cc3)CC2)cc1Cl	3%
45	COc1ccc([S+](=O)([O-])Nc2ccc(-c3nc4ccccc4[nH]3)cc2)cc1OC	i
46	Cc1ccc(NC(=O)CSc2nncn2C)c(C)c1	-11%
47	CCCOc1ccc(C(=O)NCC(c2ccc(OC)cc2)N2CCCCC2)cc1 (stereo unspecified)	-6%
48	CCc1nc2c(=O)n(CC(=O)NCCC3=CCCCC3)nc(C)c2s1	?
49	CO[C@H]1[C@@H](O)[C@H](O[C@H]2CC[C@@]3(C)C(CCC4C3CC[C@]35COC6(COC(=O)C6)C3CCC45O)C2)O[C@@H](C)[C@@H]1OC1OC(CO)C(OC2OC(CO)C(O)C(O)C2O)C(O)C1O (stereo partly specified)	5%[5.1 µM]
50	COCC1CN(Cc2ccc(OC)cc2)CC12CCNCC2 (stereo unspecified)	2%
51	CC(CCO)CCC1C2(C)CCCC(C)(C)C2CC[C@@]1(C)O (stereo partly specified)	-14%
52	CCN(C(=O)Cn1cc(S(=O)(=O)Cc2ccccc2Cl)c2ccccc21)c1ccccc1	-21%
53	C=CC(C)(C)c1[nH]c2ccccc2c1C[C@@H]1NC(=O)[C@H](C)NC1=O	21%
54	Nc1n[nH]c(N)c1N=Nc1ccc(O)cc1	190%[activator]
55	CNC(=O)c1noc([C@@H]2CC(F)(F)CN2Cc2cnn(C(C)C)c2)n1	-2%
56	CC(C)OC(=O)N1CCC(Oc2ncnc3c2cnn3-c2ccc(S(C)(=O)=O)cc2F)CC1	-11%
57	COc1ccc(-c2cc3nc(C)c(CCC(=O)N4CCN(c5cc(C)ccc5C)CC4)c(C)n3n2)c(OC)c1	-10%
58	COc1ccc2c(c1)C(COCc1ccc(S(C)(=O)=O)cc1)CC(C)(C)O2 (stereo unspecified)	-16%
59	CC(=O)NC(C=O)C(O)C(O)[C@H](O)CO (stereo partly specified)	-10%
60	CC1=C(C(=O)Nc2cccnc2)C(c2cccc(F)c2)n2nc(SCc3ccccc3F)nc2N1 (stereo unspecified)	-20%
61	CN1CCN(c2c(F)cc3c(=O)c(C(=O)O)cn(CCF)c3c2F)CC1	-9%
62	OCc1ccc(-c2ccc3ncnc(NCc4nccs4)c3c2)o1	8.9µM*
63	CS(=O)(=O)N1CCc2cc(C(=O)Nc3ccc(Cl)c(C(F)(F)F)c3)ccc21	-18%
64	O=C(NCc1ccccc1Br)C1CCCN(C(=O)N2CCOc3ccccc32)C1 (stereo unspecified)	-7%
65	COc1ccc(C)cc1Nc1nc2ccccc2c2nnc(C)n12	-24%
66	O=C(CSc1nc2ccccc2nc1Cc1ccc(Cl)cc1)N1CCCCC1	-11%
67	CCCn1cc(-c2ccncc2)cc1C(=O)NCc1ccc(C)o1	?
68	C=C(C)C(=O)O[C@H]1[C@H]2C(=C)C(=O)O[C@@H]2C[C@@H](C)[C@@H]2O[C@@H]2C(=O)[C@](C)(O)[C@@H]1OC(=O)C(=C)C	-3%[10 µM]
69	CC(=O)Oc1cc(C)c(OC(C)=O)c2ccccc12	-9%[39.2 µM]
70	COC(=O)c1sccc1S(=O)(=O)N(CC(=O)Nc1ccccc1C)c1ccc(Cl)cc1	-13%
71	O=C(Cc1ccccc1)N1CCCC1c1nc(CCOCC2CC2)no1 (stereo unspecified)	0%
72	CNc1oc(-c2cccc3ccccc23)nc1C(=O)Nc1cccc(C#N)c1	-8%

In the list so far, four contain a thiophene ring, fused or not:
entry	SMILES	nsP2pro inh
24	CCOc1ccc(CCNC(=O)c2cccs2)cc1OCC	-6%
30	O=C(NCc1ccccc1)N1CCc2c(sc3c2CCCC3)C1c1ccccc1 (stereo unspecified)	-20%
42	Cc1ccc(C)c(CN2C(=O)c3ccccc3Sc3ccc(C(=O)NCc4cccs4)cc32)c1	-11%
70	COC(=O)c1sccc1S(=O)(=O)N(CC(=O)Nc1ccccc1C)c1ccc(Cl)cc1	-13%

Other structures follow:
entry	SMILES	nsP2pro inh
73	CC(C)S(=O)(=O)N1CCC(N(Cc2cccnc2)C2CCOCC2)CC1	2%
74	CCC1Oc2ccc(NC(=O)Cc3cccs3)cc2CN(C2CCCc3ccccc32)C1=O (stereo unspecified)	1%
75	COCCN1C(=O)CC[C@]2(C(=O)NCc3cccs3)CCCC[C@@H]12	-2%
76	CC1(C)CC[C@]2(C(=O)OC3OC(CO)C(O)C(O)C3O)CC[C@]3(C)C(=CCC4[C@@]5(C)C[C@@H](O)[C@H](OC6OC(C(=O)O)C(O)C(O)C6O)C(C)(C)C5CC[C@]43C)[C@@H]2C1 (stereo partly specified)	-17%[5.1 µM]
77	Cc1ccc2c(CNCCc3ccc(Cl)cc3)c(C(=O)O)n(Cc3ccc(F)cc3)c2c1	6%
78	O=C([C@@H]1C[C@H](F)CN1C(=O)c1cccs1)N1CCOCC1	2%
79	COc1cccc(N2C(=O)NC(=NC3CCCCC3)C23CCCN(Cc2ccsc2)C3)c1 (stereo unspecified)	i
80	O=C1C[C@H]2CC[C@@H](CN1)N2Cc1ccc(OCc2ccccc2)cc1	-2%
81	N[C@@H](CCNCc1ccc(Cl)cc1)C(=O)N1CCCCC1	9%
82	O=C(NCC(c1cccnc1)N1CCc2ccccc2C1)c1ccc(F)c(F)c1 (stereo unspecified)	?
83	NCC(O)c1cccc(O)c1 (stereo unspecified)	-8%
84	COc1ccc(CCN(Cc2ccccn2)C(=O)[C@H]2CCC[C@H](O)C2)cc1	i
85	O=C(Nc1ccc(N2CCC(N3CCCCC3)CC2)c(C(=O)O)c1)c1ccc(Br)cc1	34%
86	CC(C)Cn1c(CN2CCN(c3cccc(Cl)c3)CC2)nc2c1c(=O)[nH]c(=O)n2C	-22%
87	COC(=O)Nc1sc2c(c1-c1nc3ccccc3s1)CCNC2	i
88	CC(C)(C)c1ccc(C2NC(=O)c3n[nH]c(-c4cccs4)c32)cc1 (stereo unspecified)	-15%
89	Cc1ccc(OCCn2c(CCNC(=O)/C=C/c3ccccc3Cl)nc3ccccc32)cc1	-7%
90	CCOc1ccc(CCNC(=O)c2cc3sccc3n2CCN(C)C)cc1OCC	-5%
91	O=C(CCS(=O)(=O)c1cc(Br)cc2c1N(C(=O)C1CC1)CC2)N1CCN(c2cccc(C(F)(F)F)c2)CC1	-12%
92	CC(C)(C)NC(=O)[C@@H]1C[C@@H]2CCCC[C@@H]2CN1C[C@@H](O)[C@H](Cc1ccccc1)NC(=O)[C@H](CC(N)=O)NC(=O)c1ccc2ccccc2n1	?
93	CCC(O)c1ccccc1 (stereo unspecified)	-4%
94	c1ccc(OCCNc2nc(-c3cccnc3)nc3c2CCNCC3)cc1	i
95	Cc1cc(C)nc(NC(=S)N2CCN(c3cccc4cnccc34)CC2)c1	-5%
96	N#Cc1nc(NC2CCCC2)c2ncn(-c3cc(F)cc(F)c3)c2n1	-4%
97	COc1ccc(-n2c(=O)c3c4c(sc3n(CC(=O)N3CCCCC3C)c2=O)CCC4)c(OC)c1 (stereo unspecified)	-17%
98	CCOC(=O)CNC(c1ccccc1)c1cc(Br)ccc1NC(=O)c1ccc(Cl)cc1 (stereo unspecified)	-24%
99	Cc1ccc(Cn2c(C(=O)O)c(CNC3CCCCCC3)c3ccc(C)cc32)cc1	-10%
100	Cc1noc2c(NCCCn3ccnc3)cc(-c3ccccn3)nc12	i
101	Cc1cnc(C(=O)N2C[C@H]3OC(=O)N(CCc4cccc(Cl)c4)[C@H]3C2)[nH]1	-8%
102	O=C(NCCc1nc2ccccc2n1CCOc1ccc2cccnc2c1)C1CCCCC1	-14%
103	Cc1nn(C)cc1S(=O)(=O)NC(=O)c1ccc(-n2ccc(OCC(C)(C)C(F)(F)F)n2)nc1N1C[C@@H](C)CC1(C)C	-8%
104	Cc1ccc(-c2csc(=Nc3ccccc3)n2Cc2ccc3c(c2)OCO3)cc1C	-28%
105	Cn1c(=O)c2c(-c3ccccc3Br)n(CCc3ccccc3)cc2n(C)c1=O	-11%
106	COCc1cc(NCCCNc2cccnc2)ncn1	?
107	O=C(CN1C(=O)CCn2nc(-c3ccccc3)cc21)NCc1ccc(F)cc1	-17%
108	Cc1ccc(OCCn2c(CCNC(=O)c3ccco3)nc3ccccc32)cc1	0%
